rRNA inh HTS: reduced GFP signal of wild-type E. coli, primary screen, bacterial rRNA inhibitor project, GFP/RFP fluorescence, OD600, single point; E. coli WT GFP vs humanized-ribosome RFP mutants, 24 h; stronger effect = lower value; DMSO median 0, no signal -100; GFP signal change (wild-type ribosome), % (concentration not given with the values); 1.6% of 350,000 active; AID 720706, 2013;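 active means significant combined selectivity score with lowered wild-type GFP, culture density cut under 30%, mutant RFP and density less affected; inactive means any of these conditions unmet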; further: one replicate is shown; some compounds called inactive have numbers as strong as hits
AF4-AF9 inh: inhibitors of AF4 peptide binding to AF9, primary screen, biochemical, AlphaScreen, biotin-AF4 peptide, FLAG-AF9, single point. 0.47% of 350,000 active. inhibition, % at 10 µM;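 active means every replicate reaching a set inhibition limit, whatever the replicate mean, cut at about 25% in these data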;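 further: 0% = plate neutral control median and 100% = total signal loss; the record names both 10 and 1 µM as test concentration; the first replicate is given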
Target sequence (P42568 whole entry, looked up): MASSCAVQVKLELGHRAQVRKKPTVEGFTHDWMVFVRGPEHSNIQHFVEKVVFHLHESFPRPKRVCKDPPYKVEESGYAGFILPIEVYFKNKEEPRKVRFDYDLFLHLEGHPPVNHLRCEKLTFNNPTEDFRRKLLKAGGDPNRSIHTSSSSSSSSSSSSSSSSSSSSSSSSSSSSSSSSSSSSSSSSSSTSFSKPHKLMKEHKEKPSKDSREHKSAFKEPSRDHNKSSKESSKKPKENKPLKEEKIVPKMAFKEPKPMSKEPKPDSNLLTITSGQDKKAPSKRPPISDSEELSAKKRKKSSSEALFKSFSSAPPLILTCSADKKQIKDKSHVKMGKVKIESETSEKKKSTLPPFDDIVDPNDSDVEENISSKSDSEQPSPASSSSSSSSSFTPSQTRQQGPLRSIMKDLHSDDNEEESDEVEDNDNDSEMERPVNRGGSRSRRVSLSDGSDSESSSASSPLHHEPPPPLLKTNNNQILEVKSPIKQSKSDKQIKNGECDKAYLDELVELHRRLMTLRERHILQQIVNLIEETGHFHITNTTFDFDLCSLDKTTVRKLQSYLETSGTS
rRNA inh HTS OD600: second read-out of rRNA inh HTS, no call of its own (marks repeat the call); OD600 change, %; measured here: OD600 growth;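 optical density of the mix in the first replicate; 0 = DMSO median and -100 = no signal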
rRNA inh HTS RFP: also measured in rRNA inh HTS; calls as there; RFP signal change, %; measured here: RFP humanized mutant strains;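 first replicate; 0 = DMSO median and -100 = no signal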
The depositor's hits bear a star. These rows are one share of the data. The share of hits here may be higher or lower than overall.

compound	rRNA inh HTS	rRNA inh HTS OD600	rRNA inh HTS RFP	AF4-AF9 inh
C[C@H](NC(=O)[C@H]1[C@H](CO)[C@H]2Cn3c(cccc3=O)[C@H]2N1Cc1ccncc1)c1ccccc1	2.6	2.3	-0.1	2.3
CCOC(=O)[C@]12CCCC=C1N(Cc1ccc3c(c1)OCO3)C(=O)[C@H](CC(=O)N1CCC(c3ccccc3)CC1)C2	13.9	12.0	5.5	-0.3
COc1cccc(CN2CC3(CCN(C)CC3)c3c(n(C)c4cc(OC)ccc34)[C@H]2CO)c1	2.5	5.2	-2.1	1.4
C[C@@H]1CN([C@H](C)CO)C(=O)c2cccc(NC(=O)NC3CCCCC3)c2O[C@@H]1CN(C)S(=O)(=O)c1ccc(F)cc1	2.2	-3.8	1.0	-0.7
COc1cccc(CN2CCC2(C)C(=O)Nc2cccc3cccnc23)c1F (configuration not stated)	0.1	-0.7	4.8	-3.9
C[C@H](CO)N1C[C@H](C)[C@@H](CN(C)Cc2ccc(Oc3ccccc3)cc2)Oc2ccc(NC(=O)CCN3CCOCC3)cc2C1=O	-2.9	3.5	2.8	8.0
CN(C)C(=O)c1cccc(-c2cc(NC=O)c3ncc(-c4ccc(F)c(Cl)c4)n3c2)c1	-10.6	-10.7	0.6	-4.5
O=C(C[C@@H]1CC[C@H](NC(=O)Nc2cccc(F)c2)[C@H](CO)O1)NCC1CC1	-0.4	-2.1	0.1	-6.3
CC(=O)N(C)C[C@@H]1Oc2ncc(C#CCc3ccccc3)cc2C(=O)N([C@@H](C)CO)C[C@@H]1C	1.9	-3.3	-3.9	-3.8
COCC(=O)NC[C@@H]1[C@H](c2ccc(C3=CCCC3)cc2)[C@@H](CO)N1C(=O)C1CC1	-4.2	-1.0	-1.1	19.3
COc1ccc(NC(=O)N(C)C[C@@H]2Oc3c(NC(=O)Nc4ccccc4)cccc3C(=O)N([C@H](C)CO)C[C@H]2C)cc1	0.7	6.3	-2.6	-1.1
CCCNC(=O)N1CC2(CN(C(=O)Cc3cccnc3)C2)c2c([nH]c3cc(OC)ccc23)[C@H]1CO	2.7	10.0	0.4	-7.3
Cc1cccc(-c2ccc([C@H]3[C@@H](CO)N4C(=O)CN(S(=O)(=O)c5cccc(F)c5)C[C@@H]34)cc2)c1	0.0	6.0	1.6	0.2
C[C@H]1CN([C@@H](C)CO)C(=O)c2cccc(NS(=O)(=O)c3cccs3)c2O[C@H]1CN(C)Cc1ccc(C(=O)O)cc1	3.0	17.9	1.8	-9.5
COc1ccc2c3c(n(C)c2c1)[C@@H](CO)N(C(=O)Cc1ccccn1)CC31CN(Cc2ccccn2)C1	1.0	2.1	-0.7	-0.2

Copied from the list.
rRNA inh HTS RFP, COc1ccc2c3c(n(C)c2c1)[C@@H](CO)N(C(=O)Cc1ccccn1)CC31CN(Cc2ccccn2)C1 reads -0.7
rRNA inh HTS, CCOC(=O)[C@]12CCCC=C1N(Cc1ccc3c(c1)OCO3)C(=O)[C@H](CC(=O)N1CCC(c3ccccc3)CC1)C2 reads 13.9

The main list resumes, starting 2 compounds before the break.
compound	rRNA inh HTS	rRNA inh HTS OD600	rRNA inh HTS RFP	AF4-AF9 inh
C[C@H]1CN([C@@H](C)CO)C(=O)c2cccc(NS(=O)(=O)c3cccs3)c2O[C@H]1CN(C)Cc1ccc(C(=O)O)cc1	3.0	17.9	1.8	-9.5
COc1ccc2c3c(n(C)c2c1)[C@@H](CO)N(C(=O)Cc1ccccn1)CC31CN(Cc2ccccn2)C1	1.0	2.1	-0.7	-0.2
C[C@H](CO)N1C[C@H](C)[C@H](CN(C)Cc2ccc(C(F)(F)F)cc2)Oc2ccc(NC(=O)C3CCCCC3)cc2C1=O	-3.1	-7.2	4.5	2.4
CC(C)NC(=O)Nc1ccc2c(c1)C(=O)N(C)[C@@H]1CC[C@@H](CC(=O)NCC3CCCCC3)O[C@H]1CO2	-7.1	-3.9	-3.0	-0.2
C[C@@H]1CCCCO[C@H](CN(C)C(=O)CCC(F)(F)F)[C@@H](C)CN([C@@H](C)CO)C(=O)c2cc(NS(=O)(=O)c3ccccc3)ccc2O1	3.2	1.0	1.7	-1.2
COc1ccc(S(=O)(=O)N[C@@H]2CC[C@H](CCn3cc(C(C)C)nn3)O[C@@H]2CO)cc1	0.0	1.0	-0.7	0.1
C[C@@H]1CN([C@@H](C)CO)C(=O)c2cc(NC(=O)C3CCCCC3)ccc2O[C@@H](C)CCCCO[C@H]1CN(C)S(=O)(=O)c1cn(C)cn1	-3.1	-7.2	3.6	-4.6
COc1ccc(NC(=O)C2(C)Cc3c(-c4ccc(NC(C)=O)cc4)ccnc3O2)cc1OC (configuration not stated)	6.1	11.1	0.3	-3.5
COc1ccc(CN2C[C@@H](CO)O[C@@H](n3cnc4c(N5CCCC5)ncnc43)C2)cc1	0.5	-6.2	-4.8	0.2
O=C(Nc1ccccc1F)N[C@H]1CC[C@H](CCNS(=O)(=O)c2ccc(Cl)cc2)O[C@@H]1CO	-3.1	-7.3	0.4	1.2
O=C(Nc1cccc(F)c1)N1C[C@H]2[C@@H](c3ccccc31)[C@H](CO)N2C(=O)Cc1ccccc1	-41.4	-59.2	-7.2	-0.4
CN(C)CC(=O)Nc1ccc2c(c1)[C@@H]1C[C@@H](CC(=O)N(C)C)O[C@H](CO)[C@@H]1O2	2.7	4.7	0.9	-1.0
C[C@H](CO)N1C[C@H](C)[C@H](CN(C)C)Oc2ncc(-c3ccc(C(=O)N(C)C)cc3)cc2C1=O	3.1	11.0	-1.7	-4.7
OC[C@H]1[C@@H](c2ccc(-c3cccnc3)cc2)[C@@H]2CN(Cc3ccccn3)CCCCN12	4.0	10.7	-2.5	-6.6
C[C@H]1CN([C@@H](C)CO)C(=O)c2cccc(NC(=O)Nc3ccc4c(c3)OCO4)c2O[C@H]1CN(C)S(=O)(=O)c1ccc(Cl)cc1	-2.1	-9.2	4.3	6.2
O=C(C(=O)N1CCC(CNC(=O)c2ccccc2F)CC1)c1cc2ccccc2o1	-9.0	-25.6	-0.6	-3.4
C/C=C/c1ccc2c(c1)O[C@H](CN(C)C(=O)c1ccccc1F)[C@H](C)CN([C@H](C)CO)S2(=O)=O	-2.9	-13.1	-3.2	5.2
CO[C@H]1CN(C)C(=O)c2ccc(NC(=O)c3ccc4c(c3)OCO4)cc2OC[C@H](C)NC[C@H]1C	0.7	7.2	-0.8	-1.2
C[C@@H]1CN([C@@H](C)CO)C(=O)Cc2cc(NC(=O)CCN3CCOCC3)ccc2O[C@H]1CN(C)Cc1ccc(Cl)c(Cl)c1	-28.5	-58.7	5.9	12.7
C[C@H](CO)N1C[C@H](C)[C@H](CN(C)S(=O)(=O)c2ccc(F)cc2)Oc2c(NC(=O)Nc3ccc(F)cc3)cccc2C1=O	-1.5	4.2	-0.7	-0.6
CC(N)c1csc(Nc2nncc3ccccc23)n1 (configuration not stated)	1.5	-5.0	1.7	4.0
Cc1ccc(NCN2C(=O)c3ccccc3C2=O)c(C)n1	5.5	3.2	5.5	4.8
C[C@@H](NC(=O)C[C@H]1C=C[C@@H](NC(=O)Cc2ccccn2)[C@H](CO)O1)c1ccccc1	0.2	3.7	-0.3	1.0
C[C@@H]1CN([C@H](C)CO)C(=O)c2cc(NC(=O)Cc3ccccc3)ccc2O[C@@H]1CN(C)S(=O)(=O)c1ccccc1	-6.1	-11.2	4.8	-5.0
COc1cccc(C(=O)N2C[C@@H]3[C@H](c4ccccc42)[C@H](CO)N3Cc2ccccc2Cl)c1	-32.5*	-24.9*	-0.1*	2.9
C[C@H](CO)N1C[C@H](C)[C@@H](CN(C)Cc2cncnc2)Oc2cc(C3=CCCC3)ccc2S1(=O)=O	4.1	6.4	-2.0	-0.5
CCNC(=O)C[C@H]1CC[C@@H]2[C@H](COC[C@H](O)CN2S(=O)(=O)c2ccccc2F)O1	1.5	-1.1	2.8	13.9
COc1ccc(CN2C(=O)C(CC(=O)NC3CCCC3)CC(C(=O)N3CCOCC3)=C2C)cc1 (configuration not stated)	7.1	19.6	0.4	-0.3
N#C[C@H]1[C@H](c2ccc(C#CCC3CCCC3)cc2)[C@@H](CO)N1C(=O)c1ccccn1	5.1	-2.3	13.2	2.3
CN(C)C(=O)c1ccc(-c2ccc([C@@H]3[C@@H](CO)N4CCCCN(S(C)(=O)=O)C[C@H]34)cc2)cc1	4.5	21.6	-1.7	30.4*
CCN1[C@@H]2c3ccc(-c4ccccc4)c(=O)n3C[C@H]1[C@H](CO)[C@H]2C(=O)NCCCN1CCOCC1	1.9	5.8	-0.7	1.7
COc1ccc2c3c(n(C)c2c1)[C@@H](CO)N(C(C)=O)CC31CN(C(=O)C2CC2)C1	2.7	3.2	5.4	1.4
CCCNC(=O)N(C)C[C@@H]1Oc2ncc(C#CC3CCCCC3)cc2C(=O)N([C@H](C)CO)C[C@@H]1C	2.4	9.2	-2.4	4.2
C[C@H]1CCCCO[C@@H](CN(C)C(=O)Nc2ccc(C(F)(F)F)cc2)[C@@H](C)CN([C@@H](C)CO)C(=O)c2cc(NC(=O)C3CCCCC3)ccc2O1	-2.0	4.2	-1.3	-0.8
O=C(C[C@H]1CC[C@H]2[C@@H](COC[C@H](O)CN2C(=O)Cc2ccccc2)O1)NC1CCCC1	-2.8	3.8	3.0	1.3
COCCNC(=O)C[C@H]1C[C@H]2c3cc(NC(=O)NC4CCCC4)ccc3O[C@H]2[C@@H](CO)O1	4.8	3.9	1.3	1.6
CCOC(=O)[C@]12CCC=C1N(CCC1=CCCCC1)C(=O)[C@H](CC(=O)NCC1CCCCC1)C2	2.9	0.5	3.2	-5.8
CC(C)CC#Cc1ccc([C@H]2[C@@H](CO)N3C(=O)CN(C(=O)NC4CCCCC4)C[C@@H]23)cc1	-28.0	-53.9	13.2	2.7
C[C@H](CO)N1C[C@H](C)[C@H](CN(C)C(=O)CCC(F)(F)F)OCCCC[C@H](C)Oc2ccc(NS(=O)(=O)c3ccc(F)cc3)cc2C1=O	0.1	-8.6	1.5	0.3
C[C@@H]1CN([C@H](C)CO)C(=O)c2cc(NC(=O)Cn3cnnn3)ccc2O[C@H]1CN(C)C(=O)Nc1ccccc1	3.7	-5.0	0.4	-2.5
O=C(C[C@@H]1C[C@@H]2c3cc(NC(=O)C4CCC4)ccc3O[C@@H]2[C@H](CO)O1)NCCN1CCCCC1	3.1	5.1	-2.4	0.6
COc1ccc(NC(=O)Nc2ccc3c(c2)CC(=O)N([C@@H](C)CO)C[C@H](C)[C@@H](CN(C)C(=O)Nc2ccc4c(c2)OCO4)O3)cc1	3.0	6.8	-1.2	2.4
Cc1ccc(S(=O)(=O)Nc2ccc3c(c2)C(=O)N([C@H](C)CO)C[C@H](C)[C@@H](CN(C)C(=O)Nc2ccc4c(c2)OCO4)OCCCC[C@H](C)O3)cc1	1.4	1.6	-3.6	1.3
C[C@H]1CCCCO[C@H](CN(C)C)[C@@H](C)CN([C@@H](C)CO)C(=O)c2cc(NC(=O)NC3CCCCC3)ccc2O1	2.3	6.2	0.6	-6.1
O=C(N[C@@H]1CC[C@@H](CC(=O)N2CCC(Cc3ccccc3)CC2)O[C@@H]1CO)c1cnccn1	-4.8	1.0	1.7	-0.5
Cn1cnc(CCNC(=O)C[C@H]2CC[C@@H]3[C@H](COC[C@@H](O)CN3C(=O)Nc3ccccc3)O2)c1	-0.1	0.8	-5.1	2.3
C[C@@H]1CN([C@@H](C)CO)C(=O)c2cc(NC(=O)Nc3ccc4c(c3)OCO4)ccc2O[C@@H]1CN(C)S(=O)(=O)c1ccccc1	-2.7	-15.3	-2.6	4.1

Records listed above marked active in AF4-AF9 inh:
compound	rRNA inh HTS	rRNA inh HTS OD600	rRNA inh HTS RFP	AF4-AF9 inh
CN(C)C(=O)c1ccc(-c2ccc([C@@H]3[C@@H](CO)N4CCCCN(S(C)(=O)=O)C[C@H]34)cc2)cc1	4.5	21.6	-1.7	30.4*

The results go on:
compound	rRNA inh HTS	rRNA inh HTS OD600	rRNA inh HTS RFP	AF4-AF9 inh
CC(=O)N1CC2(C1)[C@H](c1ccc(-c3cccc(F)c3)cc1)[C@H](CO)N2CC1CCOCC1	-1.7	-6.9	1.2	-0.2
O=C(Nc1cccc2ccccc12)NC1CC1	-10.7	-4.9	2.8	-3.0
O=C(Nc1ccc(F)cc1)Nc1ccc2c(c1)[C@@H]1C[C@@H](CC(=O)N3CCOCC3)O[C@@H](CO)[C@@H]1O2	-3.9	-5.4	-6.2	-5.6
N#C[C@@H]1[C@H](c2ccccc2-c2ccccc2)[C@@H](CO)N1C(=O)NC1CCCCC1	-2.9	1.7	4.8	-0.2
CN(C)CC(=O)N[C@H]1CC[C@H](CC(=O)NCCN2CCCCC2)O[C@H]1CO	0.5	4.3	-0.2	-10.7
C[C@@H]1CCCCO[C@H](CN(C)Cc2ccncc2)[C@H](C)CN([C@H](C)CO)C(=O)c2cc(N(C)C)ccc2O1	-3.3	6.5	-1.7	4.9
CCc1nc2c(OCCC3CCCCC3)cccn2c1N(C=O)Cc1ccc(OC)cc1	-10.2	-22.1	10.2	4.2
CN1c2ccc(-c3ccc(F)cc3)cc2[C@@H]2[C@@H](CCN2C(=O)Cc2ccccn2)[C@H]1CO	3.6	2.1	0.2	-3.2
O=C(NCC1CC1)[C@@H]1[C@@H](CO)[C@@H]2Cn3c(ccc(C4=CCCC4)c3=O)[C@H]1N2CCC(F)(F)F	1.1	-0.8	5.9	1.3
CCCc1cn(CC[C@H]2CC[C@H](NC(=O)C3CCOCC3)[C@H](CO)O2)nn1	-0.7	1.4	0.8	-2.3
